Ecoli rRNA inh – inhibitors of bacterial rRNA selective over humanized ribosomes; E. coli WT GFP vs humanized-ribosome RFP mutants, fluorescence, 24 h; hits give low values; DMSO median 0, no signal -100; GFP signal change (wild-type ribosome), % (test concentration not listed); hit rate 1.6% among 350,000;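 active means significant combined selectivity score with lowered wild-type GFP, culture density cut under 30%, mutant RFP and density less affected; inactive means any of these conditions unmet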; further: one replicate is shown; some compounds called inactive have numbers as strong as hits
MLL AF4-AF9 inh – inhibitors of human MLL-AF4/AF9 interaction; inhibition, % at 10 µM; P42568; hit rate 0.47% among 350,000; AlphaScreen, biotin-AF4 peptide binding to FLAG-AF9;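 active means every replicate reaching a set inhibition limit, whatever the replicate mean, cut at about 25% in these data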;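 further: 0% = plate neutral control median and 100% = total signal loss; the record names both 10 and 1 µM as test concentration; the first replicate is given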
Target sequence (P42568 whole entry, looked up): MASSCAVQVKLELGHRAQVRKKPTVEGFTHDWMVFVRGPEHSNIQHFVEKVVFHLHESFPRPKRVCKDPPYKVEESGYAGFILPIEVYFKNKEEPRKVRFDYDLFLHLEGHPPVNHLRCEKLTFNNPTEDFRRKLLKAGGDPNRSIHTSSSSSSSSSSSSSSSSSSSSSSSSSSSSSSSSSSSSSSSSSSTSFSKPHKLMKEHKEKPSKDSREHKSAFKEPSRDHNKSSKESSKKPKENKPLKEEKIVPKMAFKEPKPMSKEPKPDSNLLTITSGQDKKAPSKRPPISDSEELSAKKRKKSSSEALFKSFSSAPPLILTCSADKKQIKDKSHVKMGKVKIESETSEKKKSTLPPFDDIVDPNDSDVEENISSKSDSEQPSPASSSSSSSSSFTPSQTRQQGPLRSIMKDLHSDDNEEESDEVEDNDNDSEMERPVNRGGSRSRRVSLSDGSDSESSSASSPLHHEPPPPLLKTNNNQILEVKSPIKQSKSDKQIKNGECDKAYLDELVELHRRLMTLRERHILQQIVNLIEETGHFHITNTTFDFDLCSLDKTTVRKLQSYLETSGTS
Ecoli rRNA inh OD600 – second read-out of Ecoli rRNA inh, no call of its own (marks repeat the call); OD600 change, %; measured here: OD600 growth;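 optical density of the mix in the first replicate; 0 = DMSO median and -100 = no signal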
Ecoli rRNA inh RFP – second read-out of Ecoli rRNA inh, no call of its own (marks repeat the call); RFP signal change, %; measured here: RFP humanized mutant strains;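 first replicate; 0 = DMSO median and -100 = no signal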
Active calls of the source: *; & = joins results of further samples. An excerpt; count on the stated rates, not on these rows.

Ecoli rRNA inh | Ecoli rRNA inh OD600 | Ecoli rRNA inh RFP | MLL AF4-AF9 inh | SMILES
-1 | 1 | 0.8 | 2.0 | C[C@@H]1CN([C@H](C)CO)S(=O)(=O)c2ccc(C#Cc3ccncc3)cc2O[C@@H]1CN(C)CC1CC1
1 | 6 | -1.3 | -2.0 | COc1ccc(NC(=O)N(C)C[C@@H]2Oc3ccc(NC(=O)CCCCCC(=O)Nc4ccccc4N)cc3CC(=O)N([C@H](C)CO)C[C@H]2C)cc1
12 | 7 | -1.0 | 0.6 | Cc1cccc(COC[C@H](Cc2ccccc2)N2CCN(C(=O)c3cc(Cl)cc(Cl)c3)CCC2=O)c1
0 | 5 | 2.5 | -1.8 | C[C@@H]1CN([C@H](C)CO)C(=O)c2cc(NC(=O)CCCCCC(=O)Nc3ccccc3N)ccc2O[C@@H](C)CCCCO[C@@H]1CN(C)S(=O)(=O)c1ccc(Cl)cc1
4 | 14 | 2.7 | -2.8 | COCCCNC(=O)c1nnn2c1nc(N)c1cc(Cl)ccc12
1 | 8 | -1.7 | -11 | COc1ccccc1NC(=O)N(C)C[C@@H]1OCc2ccccc2-c2ccccc2C(=O)N([C@H](C)CO)C[C@@H]1C
-5 | 0 | 0.4 | -6.9 | COc1ccc(NC(=O)Nc2ccc3c(c2)C(=O)N([C@@H](C)CO)C[C@@H](C)[C@@H](CN(C)C(=O)Nc2ccc(C(F)(F)F)cc2)O3)cc1
-1 | -5 | 0.8 | -2.6 | COC(=O)N(C)C[C@H]1OCc2ccccc2-c2c(n(C)c3ccccc23)C(=O)N([C@H](C)CO)C[C@H]1C
9 | 0 | 2.4 | 1.6 | COc1ccc(-c2cc(CNc3nc(NC(C)C)nc4cc(-c5ccccc5)sc34)on2)cc1
3 | 2 | -1.6 | -4.6 | COCC(=O)N1C[C@H](C)[C@@H](OC)CN(C)C(=O)c2cc(NC(=O)c3ccc(OC)cc3)ccc2OC[C@@H]1C
7 | 10 | 0.9 | -0.5 | COc1cc(NC(=O)c2cc(S(=O)(=O)N3CCCCC3)ccc2N2CCOCC2)cc(OC)c1OC
-9 | 1 | 24 | 5.2 | CCOC(=O)c1cc2c(c(-c3cccc(C#Cc4ccc(OC)c(OC)c4)c3)n1)[C@@H](CCO)N(S(=O)C(C)(C)C)C2 (some centres not stated)
-48 | -72 | -7.8 | -3.1 | O=C(CC1CC1)N1CC(=O)N2[C@H](C1)[C@H](c1ccc(C#Cc3cccc(F)c3)cc1)[C@@H]2CO
2 | 5 | -0.8 | 4.0 | C[C@@H]1CN([C@H](C)CO)S(=O)(=O)c2ccc(C#CC3CC3)cc2O[C@H]1CN(C)C(=O)CN(C)C
3 | 3 | -2.2 | 0.1 | C[C@@H]1CN([C@@H](C)CO)C(=O)c2cccc(N(C)C)c2O[C@@H]1CN(C)Cc1ccc(C(=O)O)cc1
-1 | 4 | -0.5 | 0.7 | O=C(Cc1ccccn1)N1[C@H](CO)[C@H]2c3ccccc3NC[C@H]21
3 | -5 | 0.8 | 1.0 | C[C@H](CO)N1C[C@H](C)[C@@H](CN(C)CC2CC2)OCCCC[C@H](C)Oc2ccc(NS(=O)(=O)c3ccc(F)cc3)cc2C1=O
-4 | -7 | -0.9 | -3.2 | C[C@@H]1CN([C@H](C)CO)C(=O)c2cccc(NS(=O)(=O)c3ccc(F)cc3)c2O[C@H]1CN(C)C(=O)Nc1ccc(C(F)(F)F)cc1
-60 | -73 | -10 | 2.1 | COc1ccccc1NC(=O)N1CCCCN2[C@H](CO)[C@H](c3ccc(C#CC4CCCC4)cc3)[C@H]2C1
-1 | 4 | 0.1 | 5.4 | C[C@H](CO)N1C[C@H](C)[C@H](CN(C)CC2CCCCC2)OCCCC[C@H](C)Oc2ccc(NC(=O)Nc3ccccc3)cc2C1=O

Some of the entries so far, as comma-separated lines:
compound,Ecoli rRNA inh,Ecoli rRNA inh OD600,Ecoli rRNA inh RFP,MLL AF4-AF9 inh
COc1cc(NC(=O)c2cc(S(=O)(=O)N3CCCCC3)ccc2N2CCOCC2)cc(OC)c1OC,7,10,0.9,-0.5
CCOC(=O)c1cc2c(c(-c3cccc(C#Cc4ccc(OC)c(OC)c4)c3)n1)[C@@H](CCO)N(S(=O)C(C)(C)C)C2 (some centres not stated),-9,1,24,5.2

Going on with the list.
Ecoli rRNA inh | Ecoli rRNA inh OD600 | Ecoli rRNA inh RFP | MLL AF4-AF9 inh | SMILES
-1 | 4 | 2.3 | 16 | CS(=O)(=O)N1C[C@H](O)COC[C@@H]2O[C@@H](CC(=O)NCc3ccc(-c4ccccc4)cc3)CC[C@H]21
2 | 4 | 0.7 | -2.0 | COCC(=O)Nc1ccc2c(c1)OC[C@@H](C)N(C(=O)COC)C[C@H](C)[C@@H](OC)CN(C)C2=O
2 | 3 | 0.6 | 0.1 | O=C(C[C@H]1CC[C@H]2[C@@H](COC[C@H](O)CN2Cc2cccc(Cl)c2)O1)N1CCOCC1
1 | 9 | -1.1 | -1.1 | Cc1noc(C)c1NC(=O)Nc1ccc2c(c1)C(=O)N([C@H](C)CO)C[C@@H](C)[C@@H](CN(C)S(=O)(=O)c1cn(C)cn1)O2
-2 | -1 | 0.4 | -3.4 | C[C@@H]1CN([C@H](C)CO)C(=O)c2cc(NC(=O)c3ccncc3)ccc2O[C@@H](C)CCCCO[C@@H]1CN(C)Cc1ccncc1
-2 | -4 | 11 | 6.2 | C[C@H]1CN([C@@H](C)CO)C(=O)c2cc(C#Cc3ccccc3)cnc2O[C@@H]1CN(C)Cc1ccccn1
10 | 4 | -5.1 | -5.6 | C[C@@H]1CN([C@@H](C)CO)C(=O)c2cc(C#C[C@@H](C)O)cnc2O[C@@H]1CN(C)CC1CCOCC1
2 | 17 | -0.4 | -1.6 | Cc1noc(C)c1NC(=O)Nc1cccc2c1O[C@H](CN(C)C)[C@@H](C)CN([C@H](C)CO)C2=O
-3 | -5 | -0.5 | -5.0 | CCC(=O)N1CC2(C1)CN(Cc1cc(F)ccc1F)[C@@H](CO)c1[nH]c3cc(OC)ccc3c12
-1 | -12 | 2.8 | -1.2 | Cc1ccc(-c2cnc3c(c2)C(=O)N([C@@H](C)CO)C[C@H](C)[C@@H](CN(C)C(=O)c2ccc(F)cc2)O3)cc1
2 | 2 | 7.3 | -1.4 | C[C@@H]1CN([C@@H](C)CO)C(=O)Cc2cc(NS(=O)(=O)c3ccccc3)ccc2O[C@H]1CN(C)C(=O)Nc1cccc2ccccc12
-4 | -5 | 2.6 | 3.6 | COc1ccccc1CN1[C@H](CO)[C@H]2c3ccccc3N(C(=O)C3CCCCC3)C[C@H]21
4 | 24 | 37 | 5.0 | CN1CCN(C(=O)C[C@H]2C[C@H]3c4cc(NC(=O)Nc5ccc(F)cc5)ccc4O[C@H]3[C@H](CO)O2)CC1
3 | 11 | -2.9 | -0.4 | COCC(=O)N1CCC2(CC1)CN(S(C)(=O)=O)[C@H](CO)c1[nH]c3cc(OC)ccc3c12
3 | 2 | 0.0 | 0.8 | CC(=O)N[C@@H]1CC[C@@H](CCNC(=O)C2CCC2)O[C@H]1CO
0 | -3 | 18 | -1.1 | COc1ccc2c3c([nH]c2c1)[C@@H](CO)N(Cc1ccccc1)CC31CCN(C(=O)Nc2cccc(F)c2)CC1
1 | 13 | 2.0 | -1.7 | C[C@H]1CCCCO[C@H](CN(C)C(=O)c2ccncc2)[C@@H](C)CN([C@@H](C)CO)C(=O)c2cc(NC(=O)c3ccncc3)ccc2O1
-39 | -70 | -3.2 | -8.0 | CN1c2ccc(-c3cccc(F)c3)cc2[C@H]2[C@H](CCN2C(=O)C2CC2)[C@H]1CO
3 | -3 | 0.3 | -2.0 | CS(=O)(=O)Nc1ccc2c(c1)[C@H]1C[C@@H](CC(=O)NCc3ccccn3)O[C@@H](CO)[C@H]1O2
-1 | -5 | -0.9 | -5.5 | C[C@H](CO)N1C[C@H](C)[C@H](CN(C)C(=O)Nc2ccccc2)OCc2ccccc2-c2ccccc2C1=O
3 | 7 | 2.9 | 0.4 | COc1ccc2c3c(n(C)c2c1)[C@@H](CO)N(C(=O)Nc1ccc(F)cc1)CC31CCN(S(=O)(=O)c2cccs2)CC1
1 | 2 | 1.1 | -1.9 | C[C@H](CO)N1C[C@H](C)[C@H](CN(C)S(=O)(=O)c2ccc(F)cc2)OCCCC[C@H](C)Oc2ccc(NC(=O)Nc3ccc4c(c3)OCO4)cc2C1=O
-9&-21 | -26&-69 | -1.4&12 | 7.3&6.8 | C[C@@H]1CN([C@H](C)CO)C(=O)c2cc(Br)cnc2O[C@@H]1CN(C)Cc1ccc(-c2ccccc2)cc1
2 | 9 | 0.8 | -2.8 | Cc1noc(C)c1NC(=O)Nc1ccc2c(c1)C(=O)N([C@H](C)CO)C[C@H](C)[C@H](CN(C)C(=O)Nc1ccccc1)OCCCC[C@H](C)O2
-2 | -2 | 1.6 | 0.9 | CN1[C@H](C(=O)NCc2ccccn2)[C@@H](CO)[C@@H]2Cn3c(ccc(-c4cccc(F)c4)c3=O)[C@@H]21
1 | 1 | 0.7 | -2.4 | CO[C@@H]1CN(C)C(=O)c2cc(NS(=O)(=O)c3cccc(C)c3)ccc2OC[C@@H](C)NC[C@@H]1C
0 | -4 | -1.3 | -1.1 | CCC(=O)Nc1ccc2c(c1)OC[C@H](C)N(C(=O)C1CCC1)C[C@@H](C)[C@H](OC)CN(C)C2=O
0 | -17 | -5.2 | 13 | CC(C)(C)S(=O)N1Cc2cc(C(=O)NCc3ccc4c(c3)OCO4)nc(-c3cccc(-c4ccncc4)c3)c2[C@H]1CCO (some centres not stated)
-7 | -10 | 3.4 | 1.9 | CO[C@H]1CN(C)C(=O)c2cc(NC(=O)C3CC3)ccc2OC[C@H](C)N(Cc2ccc(F)cc2)C[C@H]1C
-5 | 3 | -3.7 | -4.1 | C[C@@H]1CCCCO[C@H](CN(C)Cc2ccncc2)[C@@H](C)CN([C@@H](C)CO)C(=O)c2cc(NS(C)(=O)=O)ccc2O1
1 | -8 | 2.4 | 4.5 | Cc1ccc(S(=O)(=O)Nc2ccc3c(c2)C(=O)N([C@H](C)CO)C[C@H](C)[C@H](CN(C)Cc2ccncc2)OCCCC[C@H](C)O3)cc1
1 | -4 | -3.8 | -4.9 | CCCNC(=O)N1C[C@@H]2[C@H](c3ccccc31)[C@@H](CO)N2CC1CCCC1
-9 | -11 | 2.8 | -0.9 | O=C(c1ccccc1)N1C[C@@H]2[C@H](c3ccccc31)[C@H](CO)N2Cc1ccccc1F
-4 | 0 | 0.2 | -1.0 | COc1ccccc1-c1cn(CC[C@H]2CC[C@@H](NC(=O)c3ccccc3F)[C@H](CO)O2)nn1
2 | -4 | 1.6 | -1.4 | CC(C)NC(=O)N(C)C[C@H]1Oc2c(NS(=O)(=O)c3ccc(F)cc3)cccc2C(=O)N([C@@H](C)CO)C[C@H]1C
-3 | -9 | 1.3 | -3.6 | C[C@@H]1CCCCO[C@@H](CN(C)C(=O)Cc2ccccc2)[C@H](C)CN([C@H](C)CO)C(=O)c2cc(NS(=O)(=O)c3ccc(Cl)cc3)ccc2O1
2 | 9 | -2.4 | -2.4 | CCC(=O)Nc1ccc2c(c1)OC[C@H](C)N(C(=O)NC(C)C)C[C@H](C)[C@H](OC)CN(C)C2=O
1 | 7 | -2.8 | 3.6 | CNC[C@@H]1OCCCC[C@H](C)Oc2ccc(NC(=O)c3ccccc3)cc2C(=O)N([C@@H](C)CO)C[C@@H]1C
8 | 1 | -1.8 | -1.9 | CCCC#Cc1cnc2c(c1)C(=O)N([C@@H](C)CO)C[C@@H](C)[C@@H](CN(C)S(=O)(=O)c1cn(C)cn1)O2
1 | 2 | -1.1 | 1.1 | COc1ccc(CN(C)C[C@@H]2Oc3c(NS(=O)(=O)c4ccc(Cl)cc4)cccc3C(=O)N([C@@H](C)CO)C[C@H]2C)cc1
-26 | -26 | 1.9 | 0.1 | CCCCOCCCNC(=O)C[C@@H]1C[C@@]2(C(=O)OCC)CCC=C2N(Cc2ccc3c(c2)OCO3)C1=O
5 | -4 | -2.9 | -6.8 | COc1ccc(NC(=O)Nc2ccc3c(c2)C(=O)N([C@H](C)CO)C[C@H](C)[C@@H](CN(C)C(=O)Nc2ccccc2)OCCCC[C@@H](C)O3)cc1
-5 | -4 | 3.7 | 1.8 | COc1cccc(-c2ccc([C@H]3[C@H](CO)N4CCCCN(C(=O)NC(C)C)C[C@@H]34)cc2)c1
1 | 3 | -1.7 | 5.0 | C[C@H](CO)N1C[C@H](C)[C@@H](CN(C)S(=O)(=O)c2ccc(Cl)cc2)Oc2ccc(NC(=O)CCN3CCOCC3)cc2CC1=O

Full records as entered above. Order of values: Ecoli rRNA inh	Ecoli rRNA inh OD600	Ecoli rRNA inh RFP	MLL AF4-AF9 inh
`COc1ccc(NC(=O)Nc2ccc3c(c2)C(=O)N([C@H](C)CO)C[C@H](C)[C@@H](CN(C)C(=O)Nc2ccccc2)OCCCC[C@@H](C)O3)cc1` is listed as 5	-4	-2.9	-6.8
`C[C@H](CO)N1C[C@H](C)[C@@H](CN(C)S(=O)(=O)c2ccc(Cl)cc2)Oc2ccc(NC(=O)CCN3CCOCC3)cc2CC1=O` is listed as 1	3	-1.7	5.0
`COc1cccc(-c2ccc([C@H]3[C@H](CO)N4CCCCN(C(=O)NC(C)C)C[C@@H]34)cc2)c1` is listed as -5	-4	3.7	1.8
`CCCCOCCCNC(=O)C[C@@H]1C[C@@]2(C(=O)OCC)CCC=C2N(Cc2ccc3c(c2)OCO3)C1=O` is listed as -26	-26	1.9	0.1

Screening data from PubChem BioAssay.
